Assay outcomes: PubChem, Broad Institute
Env fusion inh – inhibitors of HIV-1 Env-driven cell-cell fusion, primary screen, HeLa-JRFL effector, CEM21 target cells, luciferase; inhibition, % at 12.3 µM; actives 1.1% (n = 360,000); AID 651610, 2012;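 active = mean replicate inhibition score of at least 50 and every replicate individually at or above 50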;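 also: 0% = plate neutral controls and 100% = maraviroc near 300 nM; one replicate is shown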
UUG fidelity – modulators of yeast start codon fidelity, primary screen, whole organism, S. cerevisiae, single point, plate reader | S. cerevisiae UUG-firefly luciferase reporter, luminescence/redox ratio | activity score, % at 18.7 µM | actives 0.13% (n = 350,000);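 active = replicate mean at a twofold rise or more, about +100% in these data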;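 also: firefly luciferase made from a UUG start codon reports start codon fidelity; reporter light over untreated wells divided by growth signal over untreated wells; some hits fall short of that in this replicate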
Numbers without * were called inactive; & = joins results of further samples; [ ] = dose if it differs, or a comment. Not all compounds are listed. The share of hits here may be higher or lower than overall.

SMILES | Env fusion inh | UUG fidelity
Cc1noc(C)c1NC(=O)N(C)C[C@H]1Oc2cc(C#CCN(C)C)ccc2S(=O)(=O)N([C@@H](C)CO)C[C@@H]1C | -8[16.7 µM] | 0
C[C@H]1CN([C@@H](C)CO)C(=O)c2cccc(NC(=O)c3nc4ccccc4s3)c2O[C@@H]1CN(C)C(=O)Nc1ccccc1 | -7[16.7 µM] | 8
COc1ccc(NC(=O)Nc2ccc3c(c2)C(=O)N([C@H](C)CO)C[C@H](C)[C@H](CN(C)C(=O)NC2CCCCC2)OCCCC[C@@H](C)O3)cc1 | -30[16.7 µM] | -1
CC(=O)N(C)C[C@@H]1Oc2ncc(-c3ccc(F)cc3)cc2C(=O)N([C@@H](C)CO)C[C@H]1C | 4[16.7 µM] | -1
Cc1ccc(-c2ccc3c(c2)O[C@H](CN(C)C(=O)Nc2ccc(C(F)(F)F)cc2)[C@@H](C)CN([C@@H](C)CO)S3(=O)=O)cc1 | 28[16.7 µM] | -22
CC(C)NC(=O)N[C@H]1CC[C@H](CC(=O)NCCCN(C)C)O[C@H]1CO | 14[16.7 µM] | -3
C[C@@H]1CN([C@H](C)CO)C(=O)c2cc(NC(=O)Nc3ccccc3)ccc2O[C@@H]1CN(C)S(=O)(=O)c1ccc(F)cc1 | -3[16.7 µM] | -1
C[C@@H]1CN([C@H](C)CO)C(=O)Cc2cc(NC(=O)C3CCCCC3)ccc2O[C@H]1CN(C)Cc1ccc(C(=O)O)cc1 | -11[16.7 µM] | -31
C[C@H](CO)N1C[C@H](C)[C@@H](CN(C)S(C)(=O)=O)Oc2cc(Br)ccc2S1(=O)=O | 13&13[16.7 µM] | -3&10
C[C@@H]1CN([C@H](C)CO)S(=O)(=O)c2ccc(-c3ccc(C(=O)N(C)C)cc3)cc2O[C@@H]1CN(C)C(=O)C1CCCCC1 | 1[16.7 µM] | 8
CN1CCN(C(=O)C[C@@H]2CC[C@H]3[C@@H](COC[C@@H](O)CN3Cc3cccc(F)c3)O2)CC1 | -9[16.7 µM] | -5
C[C@H](CO)N1C[C@H](C)[C@H](CN(C)C(=O)C2CCCCC2)Oc2ncc(C#Cc3cccc(F)c3)cc2C1=O | 18[16.7 µM] | 1
C[C@H]1CN([C@@H](C)CO)S(=O)(=O)c2ccc(C#Cc3cccnc3)cc2O[C@H]1CN(C)C(=O)Nc1ccc2c(c1)OCO2 | -4[16.7 µM] | -4
CC(=O)Nc1ccc2c(c1)C(=O)N(C)[C@H]1CC[C@@H](CC(=O)NCc3ccccc3)O[C@@H]1CO2 | -15[16.7 µM] | -4
CCCC#Cc1cnc2c(c1)C(=O)N([C@@H](C)CO)C[C@@H](C)[C@@H](CN(C)C(=O)c1cccnc1)O2 | 4[16.7 µM] | -19
CN1CCN(C(=O)C[C@@H]2CC[C@@H]3[C@H](COC[C@@H](O)CN3C(=O)c3ccccc3F)O2)CC1 | 12[16.7 µM] | -2
COCC(=O)N(C)C[C@H]1Oc2ncc(/C=C/c3ccccc3)cc2C(=O)N([C@@H](C)CO)C[C@@H]1C | 9[16.7 µM] | 8
Cc1ccc(S(=O)(=O)Nc2ccc3c(c2)C(=O)N([C@@H](C)CO)C[C@@H](C)[C@H](CN(C)C(=O)C2CCCCC2)OCCCC[C@H](C)O3)cc1 | -96[16.7 µM] | -1
COc1ccc(CN(C)C[C@H]2OCCCC[C@@H](C)Oc3ccc(NC(=O)Nc4cccc5ccccc45)cc3C(=O)N([C@@H](C)CO)C[C@@H]2C)cc1 | -63[16.7 µM] | 32
C[C@@H]1CN([C@H](C)CO)C(=O)Cc2cc(NC(=O)Cc3ccccc3)ccc2O[C@H]1CN(C)C(=O)Nc1ccc2c(c1)OCO2 | -11[16.7 µM] | 11
CC(C)NC(=O)N(C)C[C@@H]1Oc2ncc(C#CCc3ccccc3)cc2C(=O)N([C@H](C)CO)C[C@@H]1C | 5[16.7 µM] | 20
COc1ccccc1-c1cnc2c(c1)C(=O)N([C@@H](C)CO)C[C@@H](C)[C@H](CN(C)Cc1ccc(F)cc1)O2 | 20[16.7 µM] | -8
Cc1noc(C)c1NC(=O)N[C@H]1CC[C@@H](CC(=O)Nc2ccccc2)O[C@H]1CO | -9[16.7 µM] | -9
COCC#Cc1cnc2c(c1)C(=O)N([C@H](C)CO)C[C@@H](C)[C@@H](CN(C)C(=O)Cc1cccnc1)O2 | 6[16.7 µM] | -1
C[C@H]1CN([C@@H](C)CO)C(=O)c2cc(-c3ccc(F)cc3)cnc2O[C@H]1CN(C)CC1CCCCC1 | 19[16.7 µM] | -1
C[C@@H]1CN([C@@H](C)CO)C(=O)Cc2cc(NC(=O)C3CC3)ccc2O[C@H]1CN(C)Cc1ccc(Oc2ccccc2)cc1 | 28[16.7 µM] | 14
C[C@H](CO)N1C[C@H](C)[C@@H](CN(C)Cc2ccc(C(=O)O)cc2)Oc2ccc(NS(=O)(=O)c3ccccc3)cc2C1=O | -1[16.7 µM] | -7
C[C@H](CO)N1C[C@H](C)[C@@H](CN(C)Cc2ccc(Oc3ccccc3)cc2)Oc2ccc(NC(=O)C3CCCCC3)cc2CC1=O | -10[16.7 µM] | -13
C[C@H]1CN([C@@H](C)CO)C(=O)c2cc(-c3ccccc3)cnc2O[C@@H]1CN(C)C(=O)Nc1ccccc1F | 3[16.7 µM] | 9
C[C@H](CO)N1C[C@H](C)[C@H](CN(C)C(=O)C2CCC2)Oc2cc(C3=CCCC3)ccc2S1(=O)=O | 30[16.7 µM] | 1
C[C@H](CO)N1C[C@H](C)[C@H](CN(C)S(=O)(=O)c2cccc(F)c2)Oc2ncc(C#CC(C)(C)O)cc2C1=O | 2[16.7 µM] | 10
COc1cccc(-c2cnc3c(c2)C(=O)N([C@H](C)CO)C[C@H](C)[C@H](CN(C)C(C)=O)O3)c1 | -13[16.7 µM] | 1
C[C@@H]1CCCCO[C@@H](CN(C)C(=O)Nc2ccc3c(c2)OCO3)[C@H](C)CN([C@H](C)CO)C(=O)c2cc(NS(=O)(=O)c3cn(C)cn3)ccc2O1 | 27[16.7 µM] | 1
Cc1noc(C)c1NC(=O)N(C)C[C@@H]1Oc2ccc(NS(=O)(=O)c3cccs3)cc2CC(=O)N([C@@H](C)CO)C[C@H]1C | -12[16.7 µM] | -9
C[C@H](CO)N1C[C@H](C)[C@H](CN(C)S(=O)(=O)c2ccc(F)cc2)Oc2ncc(-c3cc4ccccc4o3)cc2C1=O | 10[16.7 µM] | 2
Cc1noc(C)c1NC(=O)Nc1ccc2c(c1)CC(=O)N([C@@H](C)CO)C[C@H](C)[C@H](CN(C)S(=O)(=O)c1c(C)noc1C)O2 | 7[16.7 µM] | 1
C[C@@H]1CN([C@@H](C)CO)S(=O)(=O)c2ccc(C#CC(C)(C)O)cc2O[C@H]1CN(C)C(=O)C1CCC1 | -32[16.7 µM] | -5
C[C@@H]1CN([C@H](C)CO)C(=O)c2cc(-c3cncnc3)cnc2O[C@@H]1CN(C)C(=O)c1ccccc1F | -32[16.7 µM] | 21
C[C@H](CO)N1C[C@H](C)[C@@H](CN(C)C(=O)Cc2cccnc2)Oc2cc(C3=CCCCC3)ccc2S1(=O)=O | 18[16.7 µM] | -15
Cc1ccc(S(=O)(=O)Nc2ccc3c(c2)C(=O)N([C@@H](C)CO)C[C@H](C)[C@@H](CN(C)Cc2ccc(Cl)c(Cl)c2)OCCCC[C@@H](C)O3)cc1 | 13[16.7 µM] | -7
Cc1ccc(S(=O)(=O)N(C)C[C@H]2Oc3c(NC(=O)C4CCCCC4)cccc3C(=O)N([C@H](C)CO)C[C@H]2C)cc1 | -34[16.7 µM] | 22
CNC[C@@H]1OCCCC[C@H](C)Oc2ccc(NC(=O)Nc3ccccc3)cc2C(=O)N([C@H](C)CO)C[C@H]1C | -7[16.7 µM] | 0
CC(=O)Nc1ccc2c(c1)C(=O)N(C)[C@@H]1CC[C@@H](CC(=O)N3CCc4ccccc4C3)O[C@H]1CO2 | 7[16.7 µM] | 5
C[C@H]1CCCCO[C@H](CN(C)S(=O)(=O)c2cn(C)cn2)[C@@H](C)CN([C@@H](C)CO)C(=O)c2cc(NS(C)(=O)=O)ccc2O1 | 15[16.7 µM] | 14
C[C@H](CO)N1C[C@H](C)[C@@H](CN(C)Cc2ccc(-c3ccccc3)cc2)Oc2ccc(NS(=O)(=O)c3ccccc3)cc2CC1=O | -34[16.7 µM] | 8
C[C@H](CO)N1C[C@H](C)[C@H](CN(C)S(=O)(=O)c2cccc(F)c2)Oc2ncc(Br)cc2C1=O | 47&42[16.7 µM] | -4&-2
C[C@@H]1CCCCO[C@@H](CN(C)C(=O)NC2CCCCC2)[C@@H](C)CN([C@@H](C)CO)C(=O)c2cc(NC(=O)Nc3ccc4c(c3)OCO4)ccc2O1 | -6[16.7 µM] | 0
C[C@H]1CN([C@@H](C)CO)C(=O)Cc2cc(NC(=O)Nc3ccc4c(c3)OCO4)ccc2O[C@H]1CN(C)S(C)(=O)=O | -19[16.7 µM] | 7
Cc1ccc(-c2cnc3c(c2)C(=O)N([C@@H](C)CO)C[C@@H](C)[C@@H](CN(C)C(=O)c2ccncc2)O3)cc1 | -13[16.7 µM] | -4
C[C@@H]1CCCCO[C@H](CN(C)S(=O)(=O)c2cn(C)cn2)[C@@H](C)CN([C@@H](C)CO)C(=O)c2cc(NS(C)(=O)=O)ccc2O1 | 20[16.7 µM] | 43
C[C@@H]1CCCCO[C@H](CN(C)S(=O)(=O)c2cccs2)[C@H](C)CN([C@@H](C)CO)C(=O)c2cc(NC(=O)CCC(F)(F)F)ccc2O1 | 0[16.7 µM] | -1
CCCN1C[C@@H](C)[C@@H](OC)CN(C)C(=O)c2cc(NC(=O)c3ccccc3F)ccc2OC[C@H]1C | 23[16.7 µM] | 9
COc1ccc(S(=O)(=O)N(C)C[C@H]2OCCCC[C@@H](C)Oc3ccc(NS(=O)(=O)c4ccc(F)cc4)cc3C(=O)N([C@H](C)CO)C[C@H]2C)cc1 | 6[16.7 µM] | 6
COc1ccc([Si](C)(C)[C@@H]2[C@@H](CCO)O[C@]3(C(=O)N(c4ccccc4)c4ccccc43)[C@H]2C)cc1 | 49[16.7 µM] | -1
C[C@H]1CN([C@@H](C)CO)S(=O)(=O)c2ccc(/C=C/c3ccccc3)cc2O[C@H]1CN(C)C(=O)Nc1ccc(F)cc1 | -6[16.7 µM] | -21
Cc1noc(C)c1S(=O)(=O)Nc1ccc2c(c1)CC(=O)N([C@@H](C)CO)C[C@H](C)[C@@H](CN(C)Cc1ccccc1)O2 | 1[16.7 µM] | -7
COC(=O)C[C@H]1CC[C@@H]2[C@H](COc3ccc(NC(=O)C4CC4)cc3C(=O)N2C)O1 | -4[16.7 µM] | -4
COc1ccc(S(=O)(=O)N(C)C[C@H]2Oc3ccc(NC(=O)CCN4CCOCC4)cc3CC(=O)N([C@@H](C)CO)C[C@H]2C)cc1 | -20[16.7 µM] | -4
C[C@@H]1CN([C@H](C)CO)S(=O)(=O)c2ccc(C#CC(C)(C)O)cc2O[C@@H]1CN(C)C(=O)CC1CC1 | 1[16.7 µM] | -5
O=C(N[C@@H]1CC[C@@H](CCn2cc(Cc3ccccc3)nn2)O[C@H]1CO)c1ccccn1 | 6[16.7 µM] | -12
C[C@@H]1CN([C@@H](C)CO)C(=O)c2cccc(NC(=O)Nc3ccc(F)cc3)c2O[C@@H]1CN(C)Cc1ccccc1 | -22[16.7 µM] | 5
CCCC#Cc1cnc2c(c1)C(=O)N([C@@H](C)CO)C[C@H](C)[C@H](CN(C)S(C)(=O)=O)O2 | -5[16.7 µM] | 0
C[C@H]1CN([C@@H](C)CO)C(=O)c2cc(C3=CCCC3)cnc2O[C@@H]1CN(C)C(=O)Cc1ccncc1 | 10[16.7 µM] | -2
